Compound activity: PubChem BioAssay, several laboratories
HNF4A DNA FP: change in binding of human HNF4A to DNA, primary screen, biochemical, fluorescence polarization, FITC-DNA; Hepatocyte nuclear factor 4-alpha (Homo sapiens), P41235; 1 h; activity change, % at 10 µM; actives 0.3% (n = 360,000); AID 1224865, 2016; in the data active = activity change above about 30%, passing the limit was not always enough;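 note: controls were the assay level and a saturating level of protein; the project sought stronger binding though the title names inhibitors; some compounds called inactive have numbers as strong as hits; positive values seem to mean higher polarization but the record does not say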
MLL AF4-AF9 inh: inhibitors of AF4 peptide binding to AF9, primary screen, biochemical, AlphaScreen, biotin-AF4 peptide, FLAG-AF9, single point; Protein AF-9 (Homo sapiens), P42568; inhibition, % at 10 µM; actives 0.47% (n = 350,000); AID 651704, 2012;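 active = every replicate reaching a set inhibition limit, whatever the replicate mean, cut at about 25% in these data; inconclusive = mean inhibition reaches that limit but some replicates miss it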;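 note: 0% = plate neutral control median and 100% = total signal loss; the record names both 10 and 1 µM as test concentration; the first replicate is given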
Target sequence (P42568 whole entry, looked up): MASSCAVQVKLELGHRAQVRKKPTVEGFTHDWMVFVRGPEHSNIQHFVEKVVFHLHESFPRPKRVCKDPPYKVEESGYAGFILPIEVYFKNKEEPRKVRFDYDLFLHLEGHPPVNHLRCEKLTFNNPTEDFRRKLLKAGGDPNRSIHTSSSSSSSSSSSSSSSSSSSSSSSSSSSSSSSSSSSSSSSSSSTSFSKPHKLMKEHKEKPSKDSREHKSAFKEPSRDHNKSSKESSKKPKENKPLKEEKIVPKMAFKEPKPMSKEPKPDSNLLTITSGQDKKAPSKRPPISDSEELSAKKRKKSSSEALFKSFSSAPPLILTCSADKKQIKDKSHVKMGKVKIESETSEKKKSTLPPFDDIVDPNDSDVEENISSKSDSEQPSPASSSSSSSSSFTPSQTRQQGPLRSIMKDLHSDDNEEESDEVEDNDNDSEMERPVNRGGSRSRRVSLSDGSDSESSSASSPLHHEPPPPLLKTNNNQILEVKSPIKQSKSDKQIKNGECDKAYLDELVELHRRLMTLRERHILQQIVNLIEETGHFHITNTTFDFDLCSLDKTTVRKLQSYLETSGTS
Ecoli growth: E. coli growth inhibition, primary screen, OD600. Escherichia coli growth, 23 h; stronger effect = lower value. OD600 absorbance (test concentration not listed). actives 0.21% (n = 330,000);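 active = OD600 absorbance below the run mean of sample wells minus 3.6 SD, in any replicate, cut at about 0.56 in these data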;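 note: stock transfer was 300 nL into about 60 µL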
UCH37 inh: inhibitors of human UCH37 deubiquitinase, primary screen, biochemical, Ub-AMC cleavage, fluorescence | purified proteasome/UCH37 | inhibition, % (test concentration not listed) | Ubiquitin carboxyl-terminal hydrolase isozyme L5 (Homo sapiens), Q9Y5K5 | actives 0.33% (n = 330,000);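 active = mean of two replicates above 20%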;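 note: 0% = compound-free wells with enzyme and 100% = wells lacking proteasome; stock transfer was 100 nL into about 20 µL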
Target sequence (Q9Y5K5 whole entry, looked up): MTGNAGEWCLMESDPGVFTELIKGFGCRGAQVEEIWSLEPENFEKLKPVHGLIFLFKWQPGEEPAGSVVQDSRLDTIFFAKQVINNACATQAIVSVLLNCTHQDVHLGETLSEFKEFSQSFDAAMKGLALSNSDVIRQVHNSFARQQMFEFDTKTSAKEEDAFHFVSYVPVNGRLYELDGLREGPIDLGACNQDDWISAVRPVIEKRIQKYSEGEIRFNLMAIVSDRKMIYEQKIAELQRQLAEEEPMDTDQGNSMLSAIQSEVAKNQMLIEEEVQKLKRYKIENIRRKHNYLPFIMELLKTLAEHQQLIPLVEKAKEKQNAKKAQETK
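Material: Human UCH37 enzyme supplied as purified proteasome complex | Schedule: 30 min compound-proteasome preincubation then 25 min substrate reaction, room temperature | Detection: AMC fluorescence from Ub-AMC cleavage, excitation 355 nm, emission 460 nm | Benchmarks: Wells without proteasome as full block, compound-free enzyme plus substrate as uninhibited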
Vif A3G: inhibitors of Vif binding to APOBEC3G peptide, primary screen, biochemical, TR-FRET, GST-Vif 1-94, biotin-A3G peptide, dose response retest (AID 1117319) | Virion infectivity factor (Human immunodeficiency virus type 1 group M subtype B (isolate … | TR-FRET GST-Vif / biotin-A3G peptide binding; higher % means a stronger effect; test concentration not given here; strong numbers were not always called active | inhibition, %, or IC50 in µM where a hit was titrated | actives 0.57% (n = 260,000);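 active = above the screen mean plus three standard deviations and confirmed in dose response; inconclusive = results disagree or hit not tested in dose response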;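 note: Vif residues 1-94 fused to GST binding biotinylated APOBEC3G peptide 110-148; 0% = full assay without inhibitor and 100% = GST in place of GST-Vif; retest series ran down from 100 µM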
FGF22 binding: binders of human FGF22 protein, primary screen, FGF22 synaptogenesis inhibitor project, biophysical, thermal shift, single point | Fibroblast growth factor 22 (Homo sapiens), Q9HCT0 | recombinant FGF22 thermal shift, SYPRO orange fluorescence; percent of sucrose octasulfate shift, DMSO zero | calls only at 9.99 µM | actives 1.5% (n = 340,000) | AID 651658, 2012;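 active = melting point raised past a set limit in the mean and every replicate; inconclusive = no clear call; three in four hits are not shown here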
Target sequence (Q9HCT0 whole entry, looked up): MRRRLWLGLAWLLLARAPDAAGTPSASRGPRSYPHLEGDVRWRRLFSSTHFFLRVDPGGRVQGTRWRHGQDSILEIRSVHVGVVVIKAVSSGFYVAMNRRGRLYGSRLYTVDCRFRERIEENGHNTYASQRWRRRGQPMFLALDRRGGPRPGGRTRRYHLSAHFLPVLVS
RanGTP-Imp inh: inhibitors of RanGTP-importin-beta interaction, primary screen, biochemical, FRET, CFP-Ran, YFP-importin-beta, homogeneous | cell-free CFP-Ran/YFP-importin-beta FRET ratio | inhibition, % (test concentration not listed) | actives 1.1% (n = 300,000) | AID 2216, 2009;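 active = most replicates above 15%; inconclusive = exactly half above 15%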;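 note: 0% = DMSO wells and 100% = Ran loaded with GDP instead of GTP; wells of about 40 µL received 100 nL stock; the first replicate is given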
* hit, by the source's call; i = inactive; u = inconclusive; x = not tested or not shown; & = joins results of further samples.

SMILES | HNF4A DNA FP | MLL AF4-AF9 inh | Ecoli growth | UCH37 inh | Vif A3G | FGF22 binding | RanGTP-Imp inh
CS(=O)(=O)N(CC(=O)N1CCN(c2ccccc2)CC1)c1cc(C(F)(F)F)ccc1Cl | -1.2 | 2.7 | 0.66 | 5.1 | 24%&-4% | i | -1.6
CNc1ccccc1NC(=O)C1CCCN1C(=O)OCc1ccccc1 (stereo not given) | -1.7 | 0.4 | 0.67 | 2.2 | x | i | 1.5
COc1ccc(C2=NC(=O)NC2c2ccc(OC)cc2)cc1 (stereo not given) | 2.7 | -0.7 | 0.67 | -50 | -12% | i | 0.7
Cc1ccc(-c2ccc(/C=N\NC(=O)c3cc4c(ccc5ccccc54)o3)o2)cc1[N+](=O)[O-] | 6.1 | x | x | x | u | x | 3.9
CN(C)c1ccc(/C=C(\C#N)C(=O)c2ccccc2)cc1 | 77* | 1.3 | 0.67 | 7.5 | -100% | i | -16
COc1ccc(S(=O)(=O)NC2CCCC2)cc1Br | -2.9 | x | 0.72 | 3.5 | -1% | x | 0.0
CCCCCOC(=O)C1=C(C)N(C)C(=O)NC1c1cc(Br)c(O)c(OC)c1 (stereo not given) | 1.2 | x | 0.7 | 3.2 | 3%&-3% | x | 0.2
COc1ccc(S(=O)(=O)N2CCOCC2)cc1NC(=O)CSc1nc(C)c(C)c(C)n1 | -0.7 | 1.2 | 0.69 | 6.5 | 0% | i | x
Cc1c(NC(=O)C(C)N2C(=O)C3CCCCC3C2=O)c(=O)n(-c2ccccc2)n1C (stereo not given) | 2.5 | 3.3 | 0.69 | 3.5 | 6% | i | -2.1
COc1ccc(OCc2cc(C(=O)N3C[C@@H](C)O[C@@H](C)C3)no2)c(Cl)c1 | 1.2 | -1.8 | 0.69 | -1.2 | x | i | -0.3
C#CCNC(=O)C1=C[C@@H](c2csc3ccccc23)C[C@@H](OCc2ccc(CO)cc2)O1 | -2.8 | 3.0&0.1 | x | 1.4 | -13% | i | 2.3
CCOC(=O)c1c(C)[nH]c(C)c1C(=O)CSc1nc2ccccc2c(=O)n1-c1ccc(Cl)cc1 | 0.8 | 4.0 | 0.65 | -1.8 | x | i | -0.2
COC(=O)c1ccc2[nH]c(C)cc(=O)c2c1 | -0.7 | x | 0.71 | -15 | -3% | x | -0.8
CSc1nnc([C@@H](NC(=O)OC(C)(C)C)C(C)C)o1 | 3.9 | x | 0.68 | 3.8 | 2% | x | -0.9
CCCCCn1c(CCCNC(=O)CC)nc2ccccc21 | 3.1 | -8.2 | 0.78 | 1.7 | -6% | i | u

A portion from further up, as a working copy:
SMILES | HNF4A DNA FP | MLL AF4-AF9 inh | Ecoli growth | UCH37 inh | Vif A3G | FGF22 binding | RanGTP-Imp inh
C#CCNC(=O)C1=C[C@@H](c2csc3ccccc23)C[C@@H](OCc2ccc(CO)cc2)O1 | -2.8 | 3.0&0.1 | x | 1.4 | -13% | i | 2.3
CCOC(=O)c1c(C)[nH]c(C)c1C(=O)CSc1nc2ccccc2c(=O)n1-c1ccc(Cl)cc1 | 0.8 | 4.0 | 0.65 | -1.8 | x | i | -0.2
COC(=O)c1ccc2[nH]c(C)cc(=O)c2c1 | -0.7 | x | 0.71 | -15 | -3% | x | -0.8
CSc1nnc([C@@H](NC(=O)OC(C)(C)C)C(C)C)o1 | 3.9 | x | 0.68 | 3.8 | 2% | x | -0.9
CCCCCn1c(CCCNC(=O)CC)nc2ccccc21 | 3.1 | -8.2 | 0.78 | 1.7 | -6% | i | u

Next section
SMILES | HNF4A DNA FP | MLL AF4-AF9 inh | Ecoli growth | UCH37 inh | Vif A3G | FGF22 binding | RanGTP-Imp inh
COc1ccccc1NS(=O)(=O)c1cc(N2Cc3ccccc3C2=N)ccc1N1CCOCC1 | -2.1 | 3.9 | 0.68 | 4.5 | x | i | 2.0
COC(=O)c1sc(N2C(=O)C(O)=C(C(=O)c3ccc(C)o3)C2c2ccc(OC)c(OC)c2)nc1C (stereo not given) | 21 | 4.6 | 0.69 | 10 | x | i | 0.5
CC1(C(=O)NC2CCCCCC2)CCN1C(=O)Cc1ccc(-c2ccccc2)cc1 (stereo not given) | -6.8 | -0.6 | x | x | x | i | x
Cc1cc(=O)oc2cc(OCC(=O)OCC(=O)NCCc3ccccc3)ccc12 | 0.0 | -1.7 | 0.68 | -21 | -7% | i | -2.2
CCOC(=O)c1c(-c2ccccc2)nnn1-c1nc(OC)nc(N2CCOCC2)n1 | 0.3 | x | 0.71 | 2.6 | 0% | x | -2.7
N/C(=N\OC(=O)Cc1ccccc1)c1ccccn1 | -1.2 | x | 0.68 | 1.2 | 3% | x | -1.4
O=C(c1ccccc1)c1c[nH]c2cc3c(cc2c1=O)OCCO3 | 4.6 | x | 0.64 | 3.6 | 3% | x | 1.8
CC(C)N(C(=O)CSc1ccc(S(=O)(=O)N2CCCCC2)cn1)c1ccccc1 | -0.1 | -0.5 | 0.69 | 1.8 | x | i | x
COc1ccc2[nH]c3nc(SCC(=O)NNC(=O)c4ccc(OC)c(OC)c4)nnc3c2c1 | 0.1 | x | 0.72 | 9.8 | 3% | x | -5.6
CC(=O)c1cccc(NC(=O)NNC(=O)c2ccc(Cl)cc2Cl)c1 | 2.9 | 0.0 | 0.65 | 4.5 | -3% | i | 3.3
COc1ccc(CCNC(=O)C2=CC=CN3CCS(=O)(=O)N=C23)cc1 | -4.3 | -1.9 | 0.7 | -9.8 | x | i | x
Cc1cccc2nc3ccccc3cc12 | -1.9 | 0.3 | 0.59 | -320 | x | i | 2.2
COc1ccc(OC)c(NC(=O)c2ccc(-c3csc(C)n3)cc2)c1 | -0.6 | -0.5 | 0.65 | 3.2 | x | i | 7.5
O=C(Nc1ccc(S(=O)(=O)N2CCCCC2)cc1)C1CCN(C(=O)c2ccco2)CC1 | 1.3 | 3.8 | 0.64 | 2.8 | x | i | -3.9
CCOC(=O)C1(Cc2ccc(OC)cc2)CCN(C(=O)CCN2CCCC2=O)CC1 | -2.5 | -17 | 0.71 | -0.6 | 2% | i | -1.2
c1cnc(N2CCSCC2)nc1 | 2.0 | x | 0.69 | 3.5 | 20% | x | 0.2
CCCC(=O)C1=C(O)C(C(=O)OC)C(C)(C)CC1=NCCc1ccc(OC)c(OC)c1 (stereo not given) | 0.1 | 0.5 | 0.65 | -2.0 | -2% | i | -1.0
CC(Nc1oc(-c2ccco2)nc1C#N)c1ccccc1 (stereo not given) | -0.8 | x | 0.7 | -39 | 4% | x | 6.4
COc1ccccc1C1CC(=O)NC(C)=C1C(=O)OCC1CCCO1 (stereo not given) | 2.7 | x | 0.77 | 4.6 | 6% | x | -2.0
O=C(Nc1ccccc1)OCCOc1ccccc1Br | 3.4 | -2.4 | 0.69 | 0.5 | x | i | -0.8
Clc1ccc2oc(-c3cccnc3)nc2c1 | 0.8 | x | 0.69 | -0.2 | -1% | x | -3.4
CSc1nn(-c2ccc(C(=O)OC(C(=O)NC(N)=O)C(C)C)cc2)c(=S)s1 (stereo not given) | 1.1 | 0.0 | 0.71 | 0.7 | 0% | i | -8.1
CCOC(=O)c1c(NC(=O)CN2C(=O)NC3(CCCCC3C)C2=O)sc(C)c1CC (stereo not given) | 6.8 | -6.7 | 0.65 | 2.4 | 1% | i | -1.3
COCCCNC1=C(C#N)C(=O)NC2(CCCC2)S1 | -4.7 | 1.6 | x | x | 0% | i | x
O=C(COC(=O)C1CCN(S(=O)(=O)c2cccs2)CC1)c1ccc2c(c1)OCCO2 | 0.1 | x | 0.75 | 5.3 | -31% | x | 0.0
O=C1CN(c2ccc(Cl)cc2)C2(CCCCC2)S1 | -0.6 | 2.3 | 0.64 | 6.2 | 1% | i | 1.5
Cc1ccc(C2C3=C(CC(C)(C)CC3=O)OC3=C2C(=O)CC(C)(C)C3)cc1 | -1.5 | -5.5 | 0.69 | 2.9 | -12% | i | 8.7
COCCNC(=O)C1CCCN(Cc2ccccc2)CC1 (stereo not given) | 2.7 | -1.9 | x | x | x | i | x
COc1cccc(-c2nn(-c3ccccc3)cc2CO)c1 | -1.8 | x | 0.69 | 2.9 | -2% | x | -5.4
O=C(NCc1ccccc1)c1ccc2nccnc2c1 | 1.0 | -25 | 0.69 | 4.5 | -3% | i | 0.0
COc1cc(-c2noc(C)c2-c2ccc3[nH]ccc3c2)cc(OC)c1OC | 4.1 | x | x | -1.7 | x | x | 0.9
C/C(N)=C(/C#N)C(=O)CSc1n[nH]c(-c2ccccc2Br)n1 | -0.2&1.9 | 0.6 | 0.63&0.7 | 1.6&6.0 | -8%&10% | i | 0.0
COc1ccc(-c2nc3ccc(Br)cn3c2Cc2cccc(Cl)c2)cc1OC | 15 | 0.2 | x | x | x | i | x
CC(C)C(=O)Nc1nnc(S(=O)(=O)N(C)c2ccc(Cl)cc2)s1 | 1.2 | -3.2 | 0.68 | 1.4 | -2% | i | 4.5
CC(=O)Nc1ccc(NC(=O)c2ccc(NC(=O)c3ccccc3)cc2)cc1 | 1.8 | -1.8 | 0.65 | -6.3 | x | i | 4.3
COc1ccc(C(=O)/C=C/c2ccc3c(c2)OCCO3)cc1 | 0.4 | x | 0.7 | 3.1 | 3% | i | -1.6
CN(C)S(=O)(=O)c1cccc(NC(=O)CCc2nc3cc(S(=O)(=O)N4CCOCC4)ccc3n2C)c1 | -6.0 | -16 | 0.63 | 0.2 | 17% | i | 9.2
COc1ccc(C2(c3ccc(OC)cc3)NC(=O)N(CC(=O)NC(C)C)C2=O)cc1 | 2.7 | 2.0 | 0.66 | 3.1 | x | i | 1.0
N#Cc1ccc(CSCC(=O)O)cc1 | -0.2 | -3.7 | 0.69 | 2.3 | 7% | i | 2.1
CC1(C(=O)Nc2cccc(C(F)(F)F)c2)Cc2c(-c3cccc(C(F)(F)F)c3)ccnc2O1 (stereo not given) | 4.5 | -3.4 | x | x | x | i | x
Cc1ccc(NC(=O)c2ccc(F)cc2F)cc1NS(C)(=O)=O | 4.0 | -2.4 | 0.66 | 2.1 | 1% | i | -2.9
COc1ccc(S(=O)(=O)Oc2cccc(C(=S)N3CCOCC3)c2)cc1 | -0.7 | 1.0 | 0.72 | 1.3 | 14% | i | 1.5
COCCN(C(=O)COC(=O)c1cc2c(s1)CCCC2)c1c(N)n(Cc2ccccc2)c(=O)[nH]c1=O | 5.5 | 1.6 | 0.67 | -0.4 | 5% | i | -1.0
Cc1cc(NC(=O)CCC(=O)N(c2ccccc2)C(C(=O)NC2CCCC2)c2cccs2)no1 (stereo not given) | 2.3 | x | 0.71 | 0.3 | 2% | x | -1.3
Cc1ccc2[nH]c3c(=O)n(N)c(C)nc3c2c1 | -2.3 | -2.1 | 0.69 | -85 | 14% | x | 2.0
CSCC[C@H](NC(=O)[C@@H]1CSC2c3ccccc3C(=O)N21)C(=O)NCc1ccco1 (stereo not given in full) | -1.3 | -1.4 | 0.69 | 4.3 | -2% | i | -0.3
COc1ccc(NC(=O)CCCSc2ccccc2)cc1S(N)(=O)=O | 0.6 | 2.9 | 0.69 | 1.9 | 14% | i | 1.6
CCNC(=S)NNC(=O)CC(C)C | 2.0 | -1.6 | 0.7 | -0.5 | x | i | 2.8

Some of the compounds tested. The share of hits here may be higher or lower than overall.
